Source: PubChem BioAssay (Center for Chemical Genomics, University of Michigan)
CDC25B-CDK2 inh – primary biochemical HTRF screen for blockers of M-phase inducer phosphatase 2 binding to CDK2/cyclin A; P30305+P24941; HTRF CDC25B-CDK2/CyclinA binding, anti-His/anti-Flag; active compounds read high; z-score (no concentration beside the values); hit rate 0.72% among 94,000;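 also: score is relative to mean and SD of negative controls; strong numbers were not always called active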
TAR Tat displ – TAR RNA-Tat peptide displacers, HIV-1, primary screen, biochemical, FRET, FAM/TAMRA-labeled Tat; HIV-1 TAR RNA, Tat peptide displacement FRET; active compounds read high; z-score (no concentration beside the values); hit rate 0.6% among 100,000;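 also: score is relative to mean and SD of negative controls; some compounds called inactive have numbers as strong as hits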
The depositor's hits bear a star; x = no result given.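 The calls were made as follows: active = z-score from 3 up in half or more of its runs; inactive = the rest.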

Structure	CDC25B-CDK2 inh	TAR Tat displ
Cc1cc2oc(C(=O)N(Cc3sccc3C)C3CCS(=O)(=O)C3)c(C)c2cc1C (centres undefined)	-0.9	2.2
O=C(NCc1c(-n2cccc2)sc2c1CCCC2)Nc1ccccc1F	-1.7	0.83
Nc1c(S(=O)(=O)c2ccccc2)nnn1CC(=O)Nc1ccc(Cl)cc1	-1.2	x
CCN(CC)c1ccc2nnc(CCC(=O)Nc3ccc(F)c(F)c3)n2n1	x	-0.29
CCCSc1ncc(Cl)c(C(=O)Nc2nnc(C(C)C)s2)n1	-2.1	1.1
Cc1cc2c3c([nH]c2cc1S(=O)(=O)NCCN1CCOCC1)CC(C)(C)CC3=O	x	0.53
Cc1cc(-c2ccc(C(C)C)c(S(=O)(=O)N(C)Cc3ccccc3)c2)on1	x	0.54
CCSc1ncc(Cl)c(C(=O)Nc2ccc(Br)cc2)n1	-2.5	3
CCOC(=O)c1csc(-c2ccc(Cl)cc2)n1	-1.2	x
O=C(COc1ccccc1Cl)Nc1ccc(OCc2cc(=O)n3ccccc3n2)cc1	x	0.13
CCOC(=O)C1(C)C=C(Nc2ccc(C)cc2)C(=O)N1c1ccc(C)cc1 (centres undefined)	-0.73	x
Cn1c(=O)c(=O)n(C)c2cc(S(=O)(=O)NCCCN3CCCC3=O)ccc21	-1.2	0.42
O=c1cc(-c2ccc(O)cc2)oc2cc(O)cc(O)c12	0.12	3.4
COc1ccc(-n2c(SCC(=O)Nc3ccc4c(c3)OCO4)nnc2-c2c[nH]c3ccccc23)cc1	0.16	x
CCSc1nnc(NC(=O)C2(c3cccs3)CCOCC2)s1	x	1.9
Cc1cc2nc(CSc3nnc(NC(=O)C(C)C)s3)c(=O)[nH]c2cc1C	x	-1.1
Cc1nc2c(s1)CCc1oc(C(=O)NC3CCCCC3)c(C)c1-2	x	-0.03
CCS(=O)(=O)c1ccc2nc(SCc3ccccc3Cl)oc2c1	-0.9	0.26
CC1CCC(NC(=O)Cn2c(=O)oc3ccccc32)CC1 (centres undefined)	x	1.2
Cc1c(C2CCN(S(=O)(=O)c3cn(C)cn3)CC2)c2ccccc2n1Cc1ccc(F)cc1	x	1.4
Cc1ccc(-c2noc3ncnc(N4CCC(C(=O)O)CC4)c23)cc1	x	1.5
CC(C)CC(=O)NCC(c1ccco1)S(=O)(=O)c1cccs1 (centres undefined)	x	0.03
CC(C)c1ccc(-c2c(NC3CCCCC3)c(=O)c2=O)cc1	x	-0.06
CC(C)NC(=O)CCCc1nnc2n(C)c(=O)c3sccc3n12	x	0.49
COc1ccc(-c2noc(CSc3nnc(C)n3-c3ccc(C)cc3)n2)cc1	-1.9	1.8

Later entries:
Structure	CDC25B-CDK2 inh	TAR Tat displ
COc1ccc(Nc2ncnc3c2cnn3-c2ccc(Cl)cc2)cc1	x	1.5
O=C1C(=O)N(CCCn2ccnc2)C(c2ccncc2)/C1=C(\O)c1ccccc1 (centres undefined)	-2.5	0.02
CN(C1CCCCC1)S(=O)(=O)N1CCCC(C(=O)N2CCN(c3ccccn3)CC2)C1 (centres undefined)	x	2.4
O=C(Cn1c(=O)oc2cc(S(=O)(=O)N3CCCCCC3)ccc21)NC1CCCCCCC1	-2.1	x
Cc1ccc(N2C(=O)c3cccnc3C2Nc2cc(F)ccc2F)cc1 (centres undefined)	1.6	1.2
O=C(O)C1CCCCC1C(=O)Nc1ccc2c(c1)OCO2 (centres undefined)	-2	-0.65
CC(C)Cn1cc(NC(=O)Nc2ccccc2)c2ccccc2c1=O	x	2.5
CC(C)CCN1C(=O)Cn2cccc2C1C(=O)NC1CCCCC1 (centres undefined)	-2.9	-1
O=C(Cn1c(=O)sc2ccccc21)NCC1COc2ccccc2O1 (centres undefined)	0.94	x
Cc1nn(S(=O)(=O)c2ccccc2)c(C)c1S(=O)(=O)N1CCOCC1	x	1
CSC1=NCN(Cc2ccccc2)CN1	0.58	x
Cc1ccc(NC(=O)CSc2ncnc3c2oc2nc4c(cc23)COC(C)(C)C4)cc1	x	-0.01
COc1cccc2cc(-c3csc(Nc4ccc(C(C)=O)cc4)n3)c(=O)oc12	-1.5	x
Cn1cnc(S(=O)(=O)Nc2cc(-c3ccc(Cl)cc3)nn2C)c1	-2.1	x
CC1=C(C(=O)OC2CCCC2)C(c2cccc(O)c2)C2=C(CC(c3cccs3)CC2=O)N1 (centres undefined)	-2.1	0.4
CC1=CC(C)(C)N(S(=O)(=O)c2ccc(C)cc2)c2cc(C)ccc21	-1.2	0.1
O=C(Nc1c(C(=O)N2CCCC2)oc2ccccc12)c1c(F)cccc1F	x	2.5
N#C/C(=C\c1ccncc1)c1ccc(NC(N)=O)cc1	-1.4	x
O=C(Nc1ccccc1F)NC(c1ccc(Cl)cc1)c1nnc(-c2ccccc2)o1 (centres undefined)	x	1.4
CCOC(=O)c1cc(S(=O)(=O)N2CCN(c3ccccn3)CC2)cn1C	-1.3	1.2
O=C(Nc1ccccc1)Nc1ccccc1	x	2.2
CCOC(=O)c1cc(Cn2c(=O)cc(C(F)(F)F)c3c(C)nn(C)c32)on1	x	-0.39
CCC1CN(S(=O)(=O)c2ccc3c(c2)N(CC(=O)OC)C(=O)CS3)c2cc(Cl)ccc2O1 (centres undefined)	x	-0.61
CCCOC(=O)c1ccc(Oc2c(C(F)(F)F)oc3cc(O)ccc3c2=O)cc1	-0.86	-1.4
CCC(C)NC(=O)c1cc(C2CC2)on1 (centres undefined)	-2.8	2.1

Single records, as listed above.
Entry for `Cn1cnc(S(=O)(=O)Nc2cc(-c3ccc(Cl)cc3)nn2C)c1` = CDC25B-CDK2 inh = -2.1; TAR Tat displ = x
Entry for `CC(C)Cn1cc(NC(=O)Nc2ccccc2)c2ccccc2c1=O` = CDC25B-CDK2 inh = x; TAR Tat displ = 2.5
Entry for `CCC(C)NC(=O)c1cc(C2CC2)on1` (centres undefined) = CDC25B-CDK2 inh = -2.8; TAR Tat displ = 2.1

The list goes on.
Structure	CDC25B-CDK2 inh	TAR Tat displ
CCN1CCN(CCNC(=O)C2CCN(c3nn4c(=O)c5c(nc4s3)CCCC5)CC2)CC1	x	-0.84
Cc1cc2n(n1)CCC(=O)N2CC(=O)NCCCN1CCCC(C)C1 (centres undefined)	x	0.12
COc1ccc(C(=O)c2sc3nc4c(c(-c5ccc(C)o5)c3c2N)CCCC4)cc1	x	-13
N#Cc1ccc(OCc2c(Cl)sc3ccc(Cl)cc23)cc1	-2.7	x
O=C(c1cc(-c2cccs2)on1)N(Cc1ccccc1)C1CCS(=O)(=O)C1 (centres undefined)	0.15	1.3
C=CCNC(=O)c1c(C)[nH]c(C(=O)OCC)c1C	-0.91	x
O=S1(=O)C[C@H](N2CCN(c3ccccn3)CC2)[C@@H](S(=O)(=O)c2ccc(F)cc2)C1	0.84	2.7
O=c1[nH]cnc2nc(N3CCCCC3)sc12	-0.39	0.92
O=S1(=O)C[C@H](NCC2CCCO2)[C@@H](S(=O)(=O)c2cccs2)C1 (some centres undefined)	-0.26	-2.5
Cc1cccc(NC(=O)c2oc3ccccc3c2NC(=O)c2nn(-c3cccc(C)c3)ccc2=O)c1	-1.2	1.7
COc1ccc(N2C(=O)c3sccc3S2(=O)=O)cc1	1.6	1.3
O=C(Cc1nc(-c2cccs2)no1)Nc1ccc(F)cc1	x	-0.46
CCCSc1nnc(NC(=O)c2nn(-c3cccc(Cl)c3)ccc2=O)s1	-2.4	1.7
Cn1c(C(=O)N2CCC(C(=O)N3CCN(Cc4ccccc4)CC3)CC2)cc2sccc21	-1.6	x
CCn1nc(-n2cnnc2)c(NS(=O)(=O)c2ccccc2)c1C	-1.8	0.49
Cn1c(=O)cc2c3c(c(NS(=O)(=O)c4ccc(Br)cc4)ccc31)C(=O)c1ccccc1-2	-1.6	-4.5
Fc1ccc(-n2nnc(-c3ccccc3Cl)n2)cc1	-1.8	1.8
CCOC(=O)c1nc(-c2nn(-c3ccc(F)cc3)c(=O)n(CC)c2=O)no1	-1.9	2.5
CC(C)Oc1ccccc1-c1nc(SCC(=O)c2ccccc2)n[nH]1	0.06	-0.51
Cc1c(C(=O)N2CCN(c3ccc(F)cc3)CC2)sc2nc[nH]c(=O)c12	x	1
COc1ccc(C2=NS(=O)(=O)N(C)C(C(=O)NCc3ccc4c(c3)OCO4)=C2)cc1	-0.45	-0.29
C=CCOc1ccc(C2C(C(=O)OC)=C(C)NC3=C2C(=O)c2ccccc23)cc1 (centres undefined)	-0.86	-0.47
COC(=O)C1(C)Cc2ccccc2C(=O)O1 (centres undefined)	-1	x
CCc1ccc(/C=C2/SC(=S)N(CC(=O)Nc3nc4ccccc4s3)C2=O)cc1	-1.8	x
CN(C(=O)NC1(C(F)(F)F)Oc2ccccc2O1)C1CCCCC1	-0.65	x

2 entries picked at random from the list so far, as already listed:
Structure	CDC25B-CDK2 inh	TAR Tat displ
COc1ccc(N2C(=O)c3sccc3S2(=O)=O)cc1	1.6	1.3
O=C(COc1ccccc1Cl)Nc1ccc(OCc2cc(=O)n3ccccc3n2)cc1	x	0.13

Next part:
Structure	CDC25B-CDK2 inh	TAR Tat displ
O=S(=O)(c1ccc(Cl)c(Cl)c1)N1CCc2c([nH]c3ccccc23)C1C(F)(F)F (centres undefined)	-0.38	x
COc1cc(C2Oc3c(OC)cccc3C3CC(c4ccccc4O)=NN32)ccc1O (centres undefined)	-0.22	-1.9
CC1CC(C)CN(CC2CCN(C(=O)Nc3ccc4c(c3)OCCO4)CC2)C1 (centres undefined)	x	0.15
COc1ccc(C2C(=O)N(C3CCCCCC3)CC(=O)N2CCC2=CCCCC2)cc1 (centres undefined)	-0.75	x
Cc1ccc2[nH]c3c(=O)n(CCCN(C)C4CCCCC4)cnc3c2c1	0.33	2.2
CCCc1nc2nc(C)cc(Nc3cc(Cl)c(OC)cc3OC)n2n1	-1.1	1.8
Fc1ccc(N2CCN(Cc3nc(-c4ccc(Cl)cc4)no3)CC2)cc1	1.3	0.3
Cn1cccc1Cc1nnc(SCC(=O)Nc2ccc(F)cc2)n1C	-1.6	1.7
O=C1CN(C(=O)C2CC2)c2ccccc2N1	-1.1	0.35
S=c1nc(C23CC4CC(CC(C4)C2)C3)[nH][nH]1	-1.7	x
COc1ccc(S(=O)(=O)[C@H]2CS(=O)(=O)C[C@@H]2NCc2cccnc2)cc1	-1.9	0.55
O=C1c2cccnc2C(Nc2cc(F)ccc2F)N1Cc1ccc(F)cc1 (centres undefined)	x	1.4
CC(=O)N(C)Cc1nc2ccccc2n1CC(C)C	-2	-0.84
O=C(c1ccc(F)cc1)C1CCN(CCn2c(=S)[nH]c3ccccc3c2=O)CC1	x	-1.6
CSC1=NC(C)(C)CCC12C=CC(=O)C=C2	2.6	-0.16
O=S(=O)(c1ccc(Br)cc1)N1CCCC1c1cccs1 (centres undefined)	-1.4	-0.46
O=C(NC1CCCCC1)c1cc2ccc3cccnc3c2[nH]1	x	0.03
CCOC(=O)c1[nH]c(C)c(C(=O)NCCCN(C)C2CCCCC2)c1C	-0.92	-0.18
O=C(Nc1ccc(N2C(=O)c3cccnc3C2=O)cc1)c1cccs1	-1.8	1
CCCCN(Cc1cccs1)C(=O)Cn1c(=O)oc2ccccc21	x	-1.2
CC(C)CSc1nnc2sc3ccccc3n12	0.47	2.5
O=C(Cn1nc2cnc3ccccc3n2c1=O)Nc1ccccc1Cl	-2.2	-0.89
Cc1ccc(S(=O)(=O)OCC2C=CC(COS(=O)(=O)c3ccc(C)cc3)C2)cc1 (centres undefined)	-1.9	x
CN1CCC(N(CCCN2CCOCC2)S(=O)(=O)c2ccc3c(c2)CCCC(=O)N3)CC1	x	0.05
CCCCCNc1sc(S(C)(=O)=O)nc1S(=O)(=O)c1ccc(Cl)cc1	-29	0.45

Later entries.
Structure	CDC25B-CDK2 inh	TAR Tat displ
Cc1cc(Br)ccc1Nc1ncnc2c1nc1n2CCCC1	x	-1.7
C=CCn1c(SC)nc2sc3c(c2c1=O)CCCC3	-1.1	1
Cc1nn(CCCC(=O)N2CCC(C)CC2)c(=O)c2cc3occc3n12	-1.5	1.5
C=CCn1c(SCC(=O)OCC)nc2sc3c(c2c1=O)CCC3	-5.8	x
Cn1c(N2CCOCC2)cc(=O)n(C)c1=O	0.45	x
CCCCN1CC(c2nc3ccccc3n2CCCOc2ccccc2)CC1=O (centres undefined)	-0.99	1.9
CSc1ncc(Cl)c(C(=O)N(Cc2ccccc2)C2CCS(=O)(=O)C2)n1 (centres undefined)	-1.7	1.2
Clc1ccc(-c2nc(N3CCCC3)c3ccccc3n2)cc1	-0.95	1.9
O=C(Nc1nnc(CCS(=O)(=O)c2ccc3ccccc3c2)s1)C1CCCCC1	-2.1	0.31
CC(C)Cc1ccc(S(=O)(=O)N2CCCc3ccccc32)cc1	0.29	x
COC(=O)CSc1ccc(Cl)nn1	-2.5	0.28
CN1CCN(c2c(C(=O)c3ccccc3)cnc3ccc(Cl)cc23)CC1	3.8	-1.6
COC(=O)CN1C(CCN2CCOCC2)=Nc2ccc(Br)cc2C1c1ccccc1 (centres undefined)	-5	0.55
O=C(O)C1C2C=CC(C2)C1C(=O)N1CCc2c([nH]c3ccccc23)C1C(F)(F)F (centres undefined)	-1.3	x
CC1Cn2c(C(=O)N3CCc4ccccc4C3)cc3c(Cl)ccc(c32)O1 (centres undefined)	-2.2	0.35

An unsorted share of the library. Share with any hit: about 0.94%.
